# High-throughput results deposited in PubChem by ICCB-Longwood Screening Facility, Harvard Medical School.
# p53 HeLa: p53 stabilisation in HPV-positive human cells, imaging, p53-positive nuclei imaging, 24 h, 48 h (AID 1508601); Cellular tumor antigen p53 (Homo sapiens); p53-positive nuclei imaging, 48 h; active compounds read high; some inactives read as strong as hits; p53-positive nuclei, normalised, % at 11 µM unless noted; 5,700 compounds, 1% hits;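 active = mean of two plates above 50% at 24 h or at 48 h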;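 note: HPV-positive HeLa cells with a fluorescent p53 stability reporter; 0% = vehicle and 100% = proteasome inhibitor control; doses worked out from stocks diluted about 900-fold with the highest of each compound shown; many of its hits are not listed in these tables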
# p53 HeLa cells 24 h: recorded beside p53 HeLa, whose call it bears; nuclei count, normalised, %; measured here: cell number at 24 h;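 100% = vehicle wells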
# p53 HeLa p53 24 h: recorded beside p53 HeLa, whose call it bears; p53-positive nuclei, normalised, %; measured here: p53 positive nuclei at 24 h;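 0% = vehicle and 100% = positive control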
# p53 HeLa cells 48 h: further read-out of p53 HeLa, marked with its call; nuclei count, normalised, %; measured here: cell number at 48 h;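 100% = vehicle wells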
# Active calls of the source: *; [ ] = another dose, or the depositor's remark. A portion of the library; the hit share may differ from the screen's.
SMILES,p53 HeLa,p53 HeLa cells 24 h,p53 HeLa p53 24 h,p53 HeLa cells 48 h
CC(O)C1C(=O)N2C(C(=O)O)=C(SC3CNC(C(=O)N(C)C)C3)C(C)C12 (stereo not given),-0.5[3.7 µM],111,-0.2,110
Cc1cnc(Nc2ccc(OCCN3CCCC3)cc2)nc1Nc1cccc(S(=O)(=O)NC(C)(C)C)c1,2.6,39,1.9,24
Cc1nc(Nc2ncc(C(=O)Nc3c(C)cccc3Cl)s2)cc(N2CCN(CCO)CC2)n1,-0.3,76,-0.2,66
Cc1ncc(CO)c(CO)c1O,-0.3[3.7 µM],120,-0.5,113
Cc1c(NC(=O)c2ccc(C(C)(C)C)cc2)cccc1-c1cn(C)c(=O)c(Nc2ccc(C(=O)N3CCOCC3)cc2)n1,2.3[3.7 µM],101,4.4,102
COc1ccc(C(=O)Nc2sc(Nc3ccccc3)nc2C(N)=O)cc1,0.0,93,0.2,93
CCCCc1ccc(N=CNO)c(C)c1,-0.2,97,0.1,103
COc1ccc(C(=O)CC2(O)C(=O)Nc3c(Cl)ccc(Cl)c32)cc1 (stereo not given),1.9,48,0.7,30
Cc1cc(Nc2nc(NC(C)c3ccc(F)cc3)c(C#N)cc2F)n[nH]1 (stereo not given),0.6[3.7 µM],39,-0.1,32
O=c1ccc2c(OCCCCOc3ccccc3)c3ccoc3cc2o1,-0.1,104,-0.2,103
CC(C)(Sc1cc(C(C)(C)C)c(O)c(C(C)(C)C)c1)Sc1cc(C(C)(C)C)c(O)c(C(C)(C)C)c1,-0.1[3.7 µM],97,-0.2,93
C=C1CCC(O)CC1=CC=C1CCC[C@]2(C)C(C(C)CCCC(C)C)CC[C@@H]12 (stereo not given in full),-0.2[3.7 µM],116,-0.3,114

# By substructure: those above containing a halogen (three)
SMILES,p53 HeLa,p53 HeLa cells 24 h,p53 HeLa p53 24 h,p53 HeLa cells 48 h
Cc1nc(Nc2ncc(C(=O)Nc3c(C)cccc3Cl)s2)cc(N2CCN(CCO)CC2)n1,-0.3,76,-0.2,66
COc1ccc(C(=O)CC2(O)C(=O)Nc3c(Cl)ccc(Cl)c32)cc1 (stereo not given),1.9,48,0.7,30
Cc1cc(Nc2nc(NC(C)c3ccc(F)cc3)c(C#N)cc2F)n[nH]1 (stereo not given),0.6[3.7 µM],39,-0.1,32

# The list goes on:
SMILES,p53 HeLa,p53 HeLa cells 24 h,p53 HeLa p53 24 h,p53 HeLa cells 48 h
CC(=O)OC1CC[C@@]2(C)C(=CCC3C2CC[C@]2(C)C(c4cccnc4)=CCC32)C1 (stereo not given in full),0.0,110,0.0,104
N#Cc1c(NC(=O)c2cccc3ccccc23)sc2c1CCCC2,1.3,40,0.9,28
COc1cc2ncnc(Nc3ccc(O)c(Br)c3)c2cc1OC,-0.1[3.7 µM],115,-0.5,103
Cn1nnc2c(C(N)=O)ncn2c1=O,-0.2[3.7 µM],107,0.2,106
O=C1CC(=O)c2c(Cl)c(Cl)c(Cl)c(Cl)c21,-0.1[3.7 µM],103,-0.3,101
Cc1ccc(NC(=O)c2ccc(CN3CCC(N(C)C)C3)c(C(F)(F)F)c2)cc1Nc1nccc(-c2cncnc2)n1 (stereo not given),-0.2,106,0.0,100
Cn1c(=O)c2c(ncn2CC(O)CO)n(C)c1=O (stereo not given),-0.5[3.7 µM],112,-0.2,107
CCN1CCN(c2cc(-c3ccc(F)cc3)c3c(n2)CCCCCC3)CC1,-0.2,114,-0.2,107
CCCCCCNC(=O)Nc1ccc(S(=O)(=O)Nc2ccc(CCNCC(O)COc3ccc(O)cc3)cc2)cc1 (stereo not given),0.0,105,0.0,104
O=[N+]([O-])c1ccc(CNc2nc(NCc3cccc(C(F)(F)F)c3)nc3nc[nH]c23)cc1,0.1,104,0.3,103
CN1CCN(c2cccc(Nc3nc4c(-c5ccc(S(C)(=O)=O)cc5)cccn4n3)c2)CC1,-0.3[3.7 µM],116,-0.5,113
CCN(Cc1ccncc1)C(=O)C(CO)c1ccccc1 (stereo not given),0.1,98,-0.1,100

# Another view of part of the listing above:
# Under each structure: p53 HeLa, p53 HeLa cells 24 h, p53 HeLa p53 24 h, p53 HeLa cells 48 h
> O=c1ccc2c(OCCCCOc3ccccc3)c3ccoc3cc2o1
 : -0.1, 104, -0.2, 103
> CC(C)(Sc1cc(C(C)(C)C)c(O)c(C(C)(C)C)c1)Sc1cc(C(C)(C)C)c(O)c(C(C)(C)C)c1
 : -0.1[3.7 µM], 97, -0.2, 93
> C=C1CCC(O)CC1=CC=C1CCC[C@]2(C)C(C(C)CCCC(C)C)CC[C@@H]12 (stereo not given in full)
 : -0.2[3.7 µM], 116, -0.3, 114

# Single records (already shown). Screens in order: p53 HeLa, p53 HeLa cells 24 h, p53 HeLa p53 24 h, p53 HeLa cells 48 h
# Entry for Cn1c(=O)c2c(ncn2CC(O)CO)n(C)c1=O (stereo not given) = -0.5[3.7 µM], 112, -0.2, 107
# Entry for O=C1CC(=O)c2c(Cl)c(Cl)c(Cl)c(Cl)c21 = -0.1[3.7 µM], 103, -0.3, 101
# Entry for CC(=O)OC1CC[C@@]2(C)C(=CCC3C2CC[C@]2(C)C(c4cccnc4)=CCC32)C1 (stereo not given in full) = 0.0, 110, 0.0, 104
# Entry for O=[N+]([O-])c1ccc(CNc2nc(NCc3cccc(C(F)(F)F)c3)nc3nc[nH]c23)cc1 = 0.1, 104, 0.3, 103
# Entry for CCN(Cc1ccncc1)C(=O)C(CO)c1ccccc1 (stereo not given) = 0.1, 98, -0.1, 100

# Additional records:
SMILES,p53 HeLa,p53 HeLa cells 24 h,p53 HeLa p53 24 h,p53 HeLa cells 48 h
Cc1cc(CCCC(CC(=O)NO)C(=O)NC(C(=O)NC(C)c2ccccc2)C(C)(C)C)ccc1-c1ccccc1 (stereo not given),0.2,89,0.1,90
CCS(=O)(=O)c1cccc(-c2cc(C(=O)NC3CCN(C)CC3)c(C)c3[nH]c4ncc(C)cc4c23)c1,2.5[3.7 µM],36,1.7,29
O=Nc1c(-c2c(O)[nH]c3cc(Br)ccc23)[nH]c2ccccc12,89*,64*,72*,47*
O=C(CCCN1CCN(c2ccccn2)CC1)c1ccc(F)cc1,0.0[3.7 µM],114,-0.2,112
CC(C)N(CCCNC(=O)Nc1ccc(C(C)(C)C)cc1)CC1OC(n2ccc3c(N)ncnc32)C(O)C1O (stereo not given),0.0,110,-0.1,113
COc1ccc2cc3[n+](cc2c1OC)CCc1cc2c(cc1-3)OCO2,-0.1[3.7 µM],110,-0.1,114
CCCCCCCC(=O)c1c(O)cc(O)cc1CC(=O)OCC,0.1,97,0.6,101
Cc1cccc(C)c1OCC(C)N (stereo not given),0.0[3.7 µM],106,-0.1,101
CSc1sc(-c2ccn(C(C)=O)n2)c2c1C(=O)CC(C)(C)C2,-0.1,94,0.1,98
CCOC(=O)n1ccn(C)c1=S,-0.1[3.7 µM],107,-0.1,97
OCC(CO)NC1C[C@@](O)(CO)C(O)C(O)C1O (stereo not given in full),-0.2[3.7 µM],114,-0.3,106
CCc1c2c(nc3ccc(O)cc13)-c1cc3c(c(=O)n1C2)COC(=O)[C@]3(O)CC,0.3[3.7 µM],51,0.0,38
Clc1cccc(Cl)c1NC1=NCCN1,0.0[3.7 µM],106,-0.3,101
CN1CCN(C(=O)c2ccc(-c3ccc4c(C=O)c(O)ccc4c3)s2)CC1,-0.1,101,0.0,99
CCCNS(=O)(=O)Nc1ncnc(OCCOc2ncc(Br)cn2)c1-c1ccc(Br)cc1,-0.2,103,0.0,95
CCC1OC(=O)C(C)C(OC2C[C@@](C)(OC)C(O)C(C)O2)C(C)C(OC2OC(C)CC(N(C)C)C2O)[C@](C)(O)CC(C)C(=O)C(C)C(O)[C@]1(C)O (stereo not given in full),0.0,111,-0.2,112
CNC(=O)c1ccccc1Sc1ccc2c(C=Cc3ccccn3)n[nH]c2c1,0.0,90,0.0,92
CCCCCC(O)CCC1C(O)C[C@H]2Cc3c(cccc3OCC(=O)O)C[C@@H]12 (stereo not given in full),-0.1,105,-0.1,104
CC(C)CC(NP(=O)(O)OC1OC(C)C(O)C(O)C1O)C(=O)NC(Cc1c[nH]c2ccccc12)C(=O)O (stereo not given),0.1[3.7 µM],113,-0.2,107
COC1C[C@@H]2CCC(C)[C@@](O)(O2)C(=O)C(=O)N2CCCC[C@@H]2C(=O)O[C@@H](C(C)CC2CCC(n3cnnn3)C(OC)C2)CC(=O)C(C)C=C(C)C(O)C(OC)C(=O)C(C)CC(C)C=CC=CC=C1C (stereo not given in full),0.0,96,0.2,96
O=C(c1cccc(Cl)c1F)N1CCN(Cc2cccc(Nc3nccs3)n2)CC1,3.2[3.7 µM],42,2.2,33
Cc1cc([N+](=O)[O-])ccc1NS(=O)(=O)c1cc(Cl)ccc1Cl,0.0[3.7 µM],113,-0.3,105
O=C(CCN1CCN(C(=O)OCc2cc(Cl)cc(Cl)c2)CC1)c1ccc2[nH]c(=O)oc2c1,-0.1,120,0.1,112
Cc1nc(N(C)C(=O)Cc2ccc(-c3ccccn3)cc2)sc1S(N)(=O)=O,0.0,105,0.1,105
CCC(=O)c1c(O)cc(O)cc1O,0.1[3.7 µM],114,-0.2,113
Cc1nc2n(c(=O)c1CCN1CCC(c3noc4cc(F)ccc34)CC1)CCCC2O (stereo not given),-0.1,117,-0.1,110
Cc1ccc(-c2cc(=O)c3ccc4ccccc4c3o2)cc1,0.0,106,0.1,105
CN(C)c1ccc(-c2nc3ncc(Cl)c(N4CCN(CC(=O)Nc5nccs5)CC4)c3[nH]2)cc1,4.7[3.7 µM],99,3.5,99
COc1ccc(-c2oc3cc(O)cc(O)c3c(=O)c2O)cc1,0.0,98,0.0,103
O=C1Cc2cc(CCN3CCN(c4nsc5ccccc45)CC3)c(Cl)cc2N1,0.3,108,0.7,107
CN1C(C(=O)Nc2ccccn2)=C(O)c2ccccc2S1(=O)=O,-0.1[3.7 µM],100,-0.3,103
O=C(O)Cc1cc(I)c(Oc2ccc(O)c(I)c2)c(I)c1,-0.1[3.7 µM],119,-0.3,113
O=C(O)CCCc1c[nH]c2ccccc12,0.0[3.7 µM],110,2.5,101
c1ccc(CNc2nc(NCc3ccccc3)c3ccccc3n2)cc1,0.2[3.7 µM],108,0.2,100
COc1ccccc1N1CCN(c2ncnc3c2cnn3-c2ccccc2)CC1,0.1,68,0.3,69
CNC(C)C(=O)NC(C(=O)N1CCCC1c1nc(C(=O)c2ccc(F)cc2)cs1)C1CCCCC1 (stereo not given),0.0,105,-0.1,97
CC(C)(C)Nc1nc2cc(Cl)c(Cl)cc2nc1S(C)(=O)=O,1.3,44,1.9,50
Clc1ccccc1C(c1ccccc1)(c1ccccc1)n1ccnc1,-0.1[3.7 µM],108,-0.1,109
C=CC(=O)N1CCc2ccc(-n3c(=O)ccc4cnc5ccc(-c6cnn(C)c6)cc5c43)cc21,0.8,48,0.0,37
CCCCNc1ncc(-c2ccc(CN3CCOCC3)cn2)c(NC2CCC(O)CC2)n1 (stereo not given),0.3,48,0.4,29
Nc1ccc2ncnc(NCCc3ccc(Oc4ccccc4)cc3)c2c1,-0.1,97,-0.1,105
CC(C)(c1ccc(O)cc1)c1ccc(O)cc1,0.3,104,0.2,106
CN(C)CC=CC(=O)Nc1cccc(Nc2ncc3c(n2)N(C)c2ccccc2C(=O)N3C)c1,6.2,30,18,18
O=C1CC(c2ccc(O)cc2)Oc2cc(O)cc(O)c21 (stereo not given),-0.3[3.7 µM],110,-0.4,110
Clc1cccc(-c2nnnn2Cc2cccnc2)c1Cl,-0.2,107,0.0,106
CC(C)CC(NC(=O)C(O)C(N)Cc1ccccc1)C(=O)O (stereo not given),0.0,105,0.1,111
CCCCCCCCCCCCCCOc1ccc(C(=O)O)o1,0.5,116,-0.1,113
S=C=Nc1cccc(NC(=S)NCCCCNC(=S)Nc2cccc(N=C=S)c2)c1,16,74,18,65
Nc1n[nH]c2nnc(-c3c(-c4ccccc4)nn4ccccc34)cc12,-0.3,104,-0.1,104

# An excerpt from above in order of molar mass, rising.
SMILES,p53 HeLa,p53 HeLa cells 24 h,p53 HeLa p53 24 h,p53 HeLa cells 48 h
Clc1cccc(-c2nnnn2Cc2cccnc2)c1Cl,-0.2,107,0.0,106
CC(C)CC(NC(=O)C(O)C(N)Cc1ccccc1)C(=O)O (stereo not given),0.0,105,0.1,111
Nc1n[nH]c2nnc(-c3c(-c4ccccc4)nn4ccccc34)cc12,-0.3,104,-0.1,104
